High-throughput results from PubChem BioAssay.
VACV Venus inh: vaccinia inhibition (Venus reporter); actives 0.46% (n = 330,000); Potency, µM (top dose mostly 36.5 µM), for inactives: top-dose activity change, negative = inhibition, hits mostly inhibitors; Vaccinia virus Venus reporter expression, fluorescence; AID 720580; active means well fitted inhibition curve with a large enough effect; inconclusive means small, poorly fitted or top-dose-only effect; inactive means no such curve, though single readings can be large or run the other way; tested in A549 cells; note: nearly all actives have a fitted effect of over 30% in size; inactives centre near -10
VACV mCherry inh: inhibitors of vaccinia virus infection (mCherry reporter signal); Vaccinia virus mCherry reporter infection, fluorescence; about a quarter of the inactives have no number; Potency, µM (titrated, usually from 36.5 µM), inactives show top-dose activity change, negative = inhibition, hits mostly inhibitors; actives 0.63% (n = 310,000); active = well fitted inhibition curve with a large enough effect; inconclusive = small, poorly fitted or top-dose-only effect; inactive = no such curve, though single readings can be large or run the other way; tested in A549 cells; note: nearly all actives have a fitted effect of over 35% in size; inactives centre near -10
* marks the source's active call; other numbers are inactive results; i = inactive; ? = inconclusive; . = no result given; [ ] = another dose, or the depositor's remark. % is set by controls: 0 for no effect and ±100 for the full control effect; potency is the fitted concentration of half-maximal effect.

SMILES | VACV Venus inh | VACV mCherry inh
CNS(=O)(=O)c1cc(NC(=O)c2cncn2-c2ccccc2)ccc1C | 1% | -12%
O=C(O)c1ccccc1-c1ccccc1C(=O)Nc1nc2ccccc2s1 | 2% | i
CCN1CCN(c2ccc(S(=O)(=O)N3CCCCC3)cc2NC(=O)c2cc3ccccc3o2)CC1 | -11% | i
Cc1ccc(NCSc2ccc(Cl)cc2)cc1 | -15% | ?
N/C(COc1cccc(Cl)c1)=N\O | -8% | -3%
Cc1ccc(-c2ccc(=O)n(CC(=O)Nc3ccc(C(C)C)cc3)n2)cc1 | -11% | -12%
Cc1ccc(C(=O)O)cc1NC1(c2ccccc2)C(=O)c2ccccc2C1=O | -2% | -5%
COc1cc(OC)cc(C(=O)N2CC(=O)Nc3ccccc32)c1 | -23% | -2%
FC(F)Oc1ccc(-c2csc(NNC3=NCCCCC3)n2)cc1 | -13% | -7%
CCN(CC)S(=O)(=O)c1ccc(NC(=O)c2cc3ccc4cccnc4c3[nH]2)cc1 | -4% | -4%
O=CN1CCN(C(C(=O)NC2CCCCC2)c2cc3c(cc2[N+](=O)[O-])OCO3)CC1 (stereo not given) | -12% | -16%
COc1cccc(C(=O)NCC2CCCN2S(=O)(=O)c2cccs2)c1 (stereo not given) | -11% | i
Cc1ccccc1N1C(S)=C(C#N)C(=O)NC1c1cccs1 (stereo not given) | -9% | -21%
COc1ccc(/C=C/C(=O)c2ccc3c4c(cccc24)CC3)cc1 | ? | ?
Cc1cccc(-n2c(O)cnc2Nc2nc(C)cc(C)n2)c1 | -6% | 5%
CCCCOc1ccc(C(C)NC(=O)CCS(=O)(=O)Cc2ccccc2Cl)cc1 (stereo not given) | -22% | -15%
CC(=O)C1=C(C)N(Cc2ccccc2)C(=O)N[C@H]1c1cccc(F)c1 | -17% | i
O=C(c1ccc(Br)o1)N1CCN(CCOc2ccccc2)CC1 | 0% | -1%
Cc1cc(-c2ccc(Br)cc2)n2nc(C)cc2n1 | ? | -22%
Cc1cc(C)c(NC(=O)c2c(C)nn(-c3ccc(F)cc3)c2-n2cccc2)c(C)c1 | -2% | -8%
O=c1c2c(nc3n1CCS3)c1cc(F)ccc1n2Cc1cc(=O)n2cc(Cl)ccc2n1 | 0%[7.34 µM] | -1%[7.34 µM]
CCCc1c(OCCCOc2ccc(OCC(=O)O)cc2)ccc(C(C)=O)c1O | -12% | -13%
Cc1ccccc1OCC(=O)NC(=S)Nc1ccc(S(=O)(=O)NC2CCCCC2)cc1 | ? | .
Cn1c(NCC(O)c2ccccc2)nc2c1c(=O)n(Cc1ccc(Cl)c(Cl)c1)c(=O)n2C (stereo not given) | 10µM* | .
O=C(CSc1nc2cc(Cl)ccc2s1)Nc1cccc(S(=O)(=O)N2CCOCC2)c1 | -18% | 0%
COc1cc(C(=O)NC(=S)Nc2ccc3ccccc3c2)cc(OC)c1OC | -30% | -14%
O=C1NC[C@@H](CCCCN2C[C@H](Cc3ccc(O)cc3)N(Cc3ccccc3)C(=O)C2=O)N(CCC2CCCCC2)C1=O | 1% | 44%[activator]
CCCOc1ccc(C(=O)Nc2ccc(NC(=O)c3ccccc3)c(Br)c2)cc1 | -16%[7.34 µM] | -20%[7.34 µM]
CC(C=CC(O)=C1C(=O)CNC1=O)=C[C@@H](C)C1OC2(C)OC(C(=O)C3O[C@@]32C)C1C (stereo not given in full) | -9% | -22%
CCOc1ccc(NC(=O)CN2CCN(CC(=O)c3ccc(OCC)cc3)CC2)cc1 | 7% | .
Cc1cc(O)cc(O)c1/C=N/NC(=O)c1ccc2c(c1)OCCO2 | ? | 2µM*
COc1ccc(NC(=S)N(CCCN2CCC(C)CC2)Cc2cccs2)cc1Cl | -6% | i
Cc1ccc(Cn2nnc3c(=O)[nH]c(C4CCN(S(=O)(=O)/C=C/c5ccccc5)CC4)nc32)cc1 | -7% | -26%
Cc1cc(C)n(-c2nc(-c3ccc(Cl)c(Cl)c3)cs2)n1 | -2% | -2%
CCCn1c(N)c(Sc2ccc(Cl)cc2)c(=O)n(CCC)c1=O | -22% | .
O=C(NCc1cccnc1)C1CC(c2ccccc2Cl)=NO1 (stereo not given) | -19% | -25%
CCOc1ccc(NC(=O)CCCc2cc(-c3ccc(OCC)cc3)on2)cc1 | -9% | -4%
CO[C@@H]1CN(C)C(=O)c2ccc(NC(=O)c3ccccc3F)cc2OC[C@@H](C)N(CC2CCOCC2)C[C@@H]1C | -13% | -21%
COc1ccc(NS(=O)(=O)c2cccc(C(=O)NCC3CCCO3)c2)cc1 (stereo not given) | -18% | -18%
O=C(CSc1nnc(-c2ccncc2)o1)N1CCCCCC1 | -13% | -14%
CCOC(=O)C1c2cccc(O)c2CCN1C(C)=O (stereo not given) | -2% | i
COc1ccc(C2C(C(=O)c3ccc(C)o3)=C(O)C(=O)N2Cc2cccnc2)cc1OC (stereo not given) | -19% | -17%
N/C(=N\OC(=O)Cc1cccs1)c1ccc(Br)cc1 | -13% | -2%
Cc1cccc(C2N3CC4(C(C)C)CN2CC(C(C)C)(C3)C4=O)c1 (stereo not given) | 8% | -7%
N#Cc1c(-c2ccncc2)cc(-c2ccc(F)cc2)nc1N | -10% | -15%
O=C1c2ccccc2NC(c2cccs2)N1O (stereo not given) | -2% | -7%
Fc1ccc(-c2nc3ccc(Cl)cn3c2Cc2ccccc2)cc1 | -19% | -6%
COc1ccccc1CC(=O)N1CCC(n2nccc2NC(=O)C2CCOC2)CC1 (stereo not given) | -6% | -11%
Cc1ccc(-c2nc(CN(C)Cc3cccc4cnccc34)c(C)o2)s1 | ? | -28%
O=C(NCc1cccnc1)C(=O)NCC1CCCO1 (stereo not given) | -5% | i
CCCC(=O)Nc1nnc2n1CCS2 | 3% | 10%
CCC1=NN(C(=O)C(=O)Nc2ccc(Br)cc2)C(O)(C(F)(F)F)C1 (stereo not given) | -17% | ?
COc1ccc(NC(=O)CN(C2CCCCC2)S(C)(=O)=O)cc1OC | -1% | -13%
Cc1cc(Br)ccc1NCc1ccccn1 | -12% | i
COc1ccc(NC(=O)c2cc(Br)ccc2Cl)c(OC)c1 | -13% | -16%
CCNC(=S)Nc1ccc2c(c1)c(=O)n(C)n2Cc1ccc(Cl)cc1 | -13% | 9%
Cc1noc(-c2ccc(N3CCC(C)CC3)c([N+](=O)[O-])c2)n1 | 0% | 1%
COCCOC(=O)c1c(C)n(C)c2ccc(OC(=O)C3CC3)cc12 | -13% | -19%
COc1cc(NS(=O)(=O)c2ccc(N/C=C\C(=O)c3ccc(OC)c(OC)c3)cc2)nc(OC)n1 | -12% | i
CCN(c1cccc(C)c1)S(=O)(=O)c1nnc(NC(=O)c2ccccc2Cl)s1 | -22% | -23%

Arranged by molar mass (falling): some entries from above
SMILES | VACV Venus inh | VACV mCherry inh
COc1cc(NS(=O)(=O)c2ccc(N/C=C\C(=O)c3ccc(OC)c(OC)c3)cc2)nc(OC)n1 | -12% | i
CCN(c1cccc(C)c1)S(=O)(=O)c1nnc(NC(=O)c2ccccc2Cl)s1 | -22% | -23%
COc1ccccc1CC(=O)N1CCC(n2nccc2NC(=O)C2CCOC2)CC1 (stereo not given) | -6% | -11%
CCC1=NN(C(=O)C(=O)Nc2ccc(Br)cc2)C(O)(C(F)(F)F)C1 (stereo not given) | -17% | ?
CCNC(=S)Nc1ccc2c(c1)c(=O)n(C)n2Cc1ccc(Cl)cc1 | -13% | 9%
COc1ccc(NC(=O)CN(C2CCCCC2)S(C)(=O)=O)cc1OC | -1% | -13%
N/C(=N\OC(=O)Cc1cccs1)c1ccc(Br)cc1 | -13% | -2%
COCCOC(=O)c1c(C)n(C)c2ccc(OC(=O)C3CC3)cc12 | -13% | -19%
Cc1cccc(C2N3CC4(C(C)C)CN2CC(C(C)C)(C3)C4=O)c1 (stereo not given) | 8% | -7%
Cc1noc(-c2ccc(N3CCC(C)CC3)c([N+](=O)[O-])c2)n1 | 0% | 1%
N#Cc1c(-c2ccncc2)cc(-c2ccc(F)cc2)nc1N | -10% | -15%
Cc1cc(Br)ccc1NCc1ccccn1 | -12% | i
O=C(NCc1cccnc1)C(=O)NCC1CCCO1 (stereo not given) | -5% | i
O=C1c2ccccc2NC(c2cccs2)N1O (stereo not given) | -2% | -7%
CCCC(=O)Nc1nnc2n1CCS2 | 3% | 10%

Next part:
SMILES | VACV Venus inh | VACV mCherry inh
CCc1nn2c(=O)cc(COC(=O)c3ccccc3NC(=O)COc3ccc(C)c(C)c3)nc2s1 | -22% | -8%
Cc1cc(O)c(C=Nc2ccc(Cl)cn2)c(=O)o1 | 95%[activator] | 12%
CN(C(=O)CCc1nnc(CCCCc2ccccc2)o1)C1CCOCC1 | -7% | -1%
CC(C)NC(=O)C1(C)CN(S(C)(=O)=O)CC(=O)N1CCc1ccccc1 (stereo not given) | -4% | -7%
Cc1nn(-c2ccc(N3CCCCC3)nn2)c(C)c1CCC(=O)Nc1ccccc1F | -17%[7.34 µM] | -1%[7.34 µM]
COC(=O)C1=C(NC(C)=O)CCS1 | 0% | i
Cc1nc(-n2nc(C)c(Cc3ccc4c(c3)OCO4)c2C)sc1C(=O)Nc1cccc(Cl)c1 | -18% | -8%
CCn1c(=O)c(=O)[nH]c2cc(C(=O)NC(C)c3ccc(S(N)(=O)=O)cc3)ccc21 (stereo not given) | 0% | 8%
CCN(CC(=O)Nc1ccc(NC(C)=O)cc1)C(=O)CSc1ncnc2sc(C)c(C)c12 | -13% | -5%
Cc1nn(C)c(C)c1CN(C)C(=O)C1CCC(=O)N(C2CCCCCC2)C1 (stereo not given) | -7% | -4%
CCOC(=O)c1c(C)[nH]c(C(=O)CSc2nnc(-c3ccncc3)n2CC)c1C | -29% | ?
CCOc1ccc2[nH]c(C(=O)N/N=C/c3ccccc3OC)cc2c1 | ? | ?
NC(=S)NN=Cc1nccc2c(C(F)(F)F)cccc12 | ? | ?
CCN(C[C@H]1N[C@@](C)(C(=O)OC)[C@H]2C(=O)N(C)C(=O)[C@@H]12)S(=O)(=O)c1ccc(OC)cc1 | -4% | -5%
CN(C(=O)COC(=O)C12CC3CC(CC(Cl)(C3)C1)C2)c1ccccc1 | -16% | i
Cc1ccc(Cl)cc1-n1ncc2c(NCCCc3ccccc3)ncnc21 | -17% | -24%
COc1ccccc1OCC(=O)NC1CC(C)(C)NC(C)(C)C1 | 4% | 13%
CN(C)C(=O)CCc1nc(-c2ccc(C(C)(C)C)cc2)no1 | ? | .
CCC(=O)N1c2ccc(S(=O)(=O)CCC(=O)NCc3cccs3)cc2CC1C (stereo not given) | ? | -29%
Cc1ccc(NC(=O)CN2C(=O)NC(C)(c3ccc(Cl)cc3)C2=O)c(Br)c1 (stereo not given) | ? | ?
CCO[C@@H]1OC(C(=O)Nc2ccccc2)=C[C@H](c2ccc(C(F)(F)F)cc2)[C@H]1CCCO | -8% | 36%[activator]
O=C(CN1C(=O)C2CC=CCC2C1=O)Nc1cc(C(F)(F)F)ccc1N1CCCC1 (stereo not given) | -5% | -22%
CCN(CC)C(=O)CS(=O)(=O)CC(=O)Nc1cc(OCCOC)c(Cl)cc1Cl | -6% | -13%
CC(C)(C)OC(=O)C[C@H]1C/C=C\C[C@H](CC(=O)N(CCO)Cc2ccccc2)C(=O)N[C@H](C(C)(C)C)COC1=O | -22% | i
CC1(C)C2CCC(C2)C1(C)NC(=O)CN1CCN(Cc2ccccc2)CC1 (stereo not given) | -1% | -13%
COc1ccccc1CNc1ccc(-c2nc(-c3cccnc3)no2)cc1[N+](=O)[O-] | -16% | -8%
CCc1ccccc1N(CC(=O)N/N=C/c1ccc(OC(=O)OC)c(OC)c1)S(C)(=O)=O | -20% | -6%
O=C(c1ccccn1)N1CCN(S(=O)(=O)c2ccccc2)CC1 | -7% | -2%
COc1cc(C(C)=O)ccc1Oc1ncnc2c1cnn2-c1ccc(F)cc1 | -4% | -19%
O=S(=O)(NCC1CCN(Cc2ccccc2)CC1)c1ccccc1C(F)(F)F | -7% | -11%
CC(=O)N1CCN(c2ccc(NC(=O)c3ccccc3Br)cc2Cl)CC1 | -7% | .
CC(CN1CCCCC1)OC(=O)c1cc2ccccc2o1 (stereo not given) | -13% | .
O=C(NNc1nc(-c2ccccc2)c2cc(Br)ccc2n1)c1ccc(S(=O)(=O)N2CCCCC2)cc1 | -6% | -13%
CC1(c2ccccc2)NC(=O)N(CC(=O)Nc2ccc3c(c2)OCO3)C1=O (stereo not given) | 2% | -6%
CC(C)(C)NC(=O)Cc1ccc(S(=O)(=O)N2CCCC2)s1 | -9% | .
O=C(CNC(=O)c1ccc(F)cc1)c1ccc(Cl)cc1 | -15% | i
CC(=O)NCC1=C(c2ccc3ccccc3c2)C[C@@H]2CC[C@H]1N2Cc1ccco1 | -17% | 0%
O=C(O)C1CCCN1S(=O)(=O)c1ccc(Br)s1 (stereo not given) (tested in a mixture with another compound) | -11% | -17%
CC(C)N=C1CCCC1C(=S)SSC(=S)C1CCCC1=NC(C)C (stereo not given) | ? | ?
CC(C)CNC(=O)c1ccccc1NC(=O)c1ccc(CSc2ccccc2)cc1 | 5% | -11%
